# Screening results (PubChem)
# Calb FLC: C. albicans growth inhibition with fluconazole, primary screen, CaCi-2 strain, Alamar Blue fluorescence | C. albicans CaCi-2 (fluconazole-resistant clinical isolate) + fluconazole, 48 h | growth inhibition, % (no concentration beside the values) | hit rate 0.57% among 300,000 | AID 1979, 2009;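 active = most replicates above 75%; inconclusive = exactly half above 75%; inactive = most below 75%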;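 note: all wells also contain fluconazole at 8 µg/ml as a sub-toxic cotreatment; 0% = median of DMSO wells and 100% = median of geldanamycin control wells; wells of about 8 µL received 7.5 nL stock; the first replicate is given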
# LANA-H2A inh: blockers of LANA interaction with H2A/H2B – biochemical, FP readout, HTS, primary screen; Protein LANA1 (Human herpesvirus 8 type P (isolate GK18)), Q9QR71; cell-free LANA-H2A/H2B peptide, fluorescence polarization; inhibition, % (test concentration not listed); hit rate 0.6% among 320,000; in the data active = inhibition mostly above about 10%, no sharp cut-off; inactive = mostly below about 6.7%;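 note: stock transfer was 7.5 nL into about 10 µL; 0% = median of vehicle wells and 100% = median of positive control wells; one replicate is shown; the record names a cut of 25% in any replicate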
# Target sequence (Q9QR71 whole entry, looked up): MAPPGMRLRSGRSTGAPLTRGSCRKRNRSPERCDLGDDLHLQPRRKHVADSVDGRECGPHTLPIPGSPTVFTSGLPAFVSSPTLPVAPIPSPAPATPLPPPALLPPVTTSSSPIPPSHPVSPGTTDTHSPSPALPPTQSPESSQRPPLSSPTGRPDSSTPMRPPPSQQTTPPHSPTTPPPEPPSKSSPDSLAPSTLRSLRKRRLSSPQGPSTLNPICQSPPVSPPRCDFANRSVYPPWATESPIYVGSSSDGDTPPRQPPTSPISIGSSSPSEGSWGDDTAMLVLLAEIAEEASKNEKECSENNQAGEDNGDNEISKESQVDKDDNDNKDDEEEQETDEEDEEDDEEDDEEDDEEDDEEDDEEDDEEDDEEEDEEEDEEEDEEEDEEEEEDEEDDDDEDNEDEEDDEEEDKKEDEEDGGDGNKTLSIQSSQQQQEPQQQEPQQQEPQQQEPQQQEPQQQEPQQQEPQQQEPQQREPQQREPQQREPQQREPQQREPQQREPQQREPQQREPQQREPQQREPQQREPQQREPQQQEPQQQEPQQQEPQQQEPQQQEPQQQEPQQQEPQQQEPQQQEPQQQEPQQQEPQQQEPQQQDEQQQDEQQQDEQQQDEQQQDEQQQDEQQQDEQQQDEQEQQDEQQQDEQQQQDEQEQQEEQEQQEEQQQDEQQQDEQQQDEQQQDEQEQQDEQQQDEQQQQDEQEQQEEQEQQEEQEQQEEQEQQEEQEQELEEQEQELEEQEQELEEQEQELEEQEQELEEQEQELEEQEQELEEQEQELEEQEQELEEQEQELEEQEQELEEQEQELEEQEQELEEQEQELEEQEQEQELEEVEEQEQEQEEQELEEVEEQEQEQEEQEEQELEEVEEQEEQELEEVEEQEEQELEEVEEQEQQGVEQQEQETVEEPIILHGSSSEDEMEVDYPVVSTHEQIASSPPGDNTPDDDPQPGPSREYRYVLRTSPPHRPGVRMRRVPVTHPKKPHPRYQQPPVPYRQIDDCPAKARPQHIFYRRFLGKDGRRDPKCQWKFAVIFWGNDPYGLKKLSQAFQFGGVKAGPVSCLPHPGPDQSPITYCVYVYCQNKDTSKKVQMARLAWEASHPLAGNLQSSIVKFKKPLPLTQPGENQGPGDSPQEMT
# MLL AF4-AF9 inh: inhibitors of AF4 peptide binding to AF9, primary screen, biochemical, AlphaScreen, biotin-AF4 peptide, FLAG-AF9, single point | Protein AF-9 (Homo sapiens), P42568 | inhibition, % at 10 µM | hit rate 0.47% among 350,000 | AID 651704, 2012;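 active = every replicate reaching a set inhibition limit, whatever the replicate mean, cut at about 25% in these data; inconclusive = mean inhibition reaches that limit but some replicates miss it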;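 note: 0% = plate neutral control median and 100% = total signal loss; the record names both 10 and 1 µM as test concentration; the first replicate is given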
# Vif TR-FRET: inhibitors of Vif binding to APOBEC3G peptide, primary screen, biochemical, TR-FRET, GST-Vif 1-94, biotin-A3G peptide, dose response retest (AID 1117319); Virion infectivity factor (Human immunodeficiency virus type 1 group M subtype B (isolate …; TR-FRET GST-Vif / biotin-A3G peptide binding; higher % means a stronger effect; test concentration not given here; strong numbers were not always called active; one-dose inhibition, %; IC50 in µM for titrated hits; hit rate 0.57% among 260,000;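 active = above the screen mean plus three standard deviations and confirmed in dose response; inconclusive = results disagree or hit not tested in dose response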;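 note: Vif residues 1-94 fused to GST binding biotinylated APOBEC3G peptide 110-148; 0% = full assay without inhibitor and 100% = GST in place of GST-Vif; retest series ran down from 100 µM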
# T cruzi inh: inhibitors of intracellular T. cruzi growth, primary screen, luminescence, NIH3T3 host cells. T. cruzi beta-gal in NIH3T3, 90 h. inhibition, % (no concentration beside the values). hit rate 1.4% among 300,000;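 active = mean inhibition across valid replicates above about 55%, limit read from the data; inconclusive = mean below that limit but half or more replicates reach it; inactive = mean below it, under half of replicates reach it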;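 note: signal also drops with host cell toxicity which is not excluded here; 0% = plate median of DMSO wells and 100% = zero luminescence signal; higher percent means less beta-gal luminescence so fewer parasites; stock transfer was 50 nL into about 50 µL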
# A1 inh: caspase 3/7 activation in MEF A1-2A-BIM cells, primary screen, A1 inhibitor project, cell-based, luminescence, HTS. Caspase-Glo 3/7 luminescence, 3 h; percent of clofoctol response, vehicle zero. caspase activation, % (no concentration beside the values). hit rate 0.066% among 330,000;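 active = over half of replicate activation scores above 10%, or exactly half above 10 with the replicate mean above 10; inconclusive = replicate mean below 10 yet half the replicates above 10; inactive = over half of replicates below 10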;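 note: wells of about 30 µL received 50 nL stock; many hits fall short of the cut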
# RanGTP-Impb inh: inhibitors of RanGTP-importin-beta interaction, primary screen, biochemical, FRET, CFP-Ran, YFP-importin-beta, homogeneous | Ran GTPase (GTP-bound) - importin-beta complex | cell-free CFP-Ran/YFP-importin-beta FRET ratio | inhibition, % (concentration not given with the values) | hit rate 1.1% among 300,000 | AID 2216, 2009;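 active = most replicates above 15%; inconclusive = exactly half above 15%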;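 note: 0% = DMSO wells and 100% = Ran loaded with GDP instead of GTP; wells of about 40 µL received 100 nL stock; the first replicate is given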
# Beta cell apopt: inhibitors of cytokine-induced beta cell apoptosis, primary screen, luminescence; hit rate 0.8% among 300,000; AID 435005, 2010; protection from apoptosis, % (no concentration beside the values); INS-1E cytokine-induced death, ATP luminescence, 48 h; percent of positive-control rescue, neutral wells zero;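 active = all replicates at 75% or more, or half of them and the mean; inconclusive = half reach 75% but not the mean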;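 note: 0% = cytokine-treated negative control wells and 100% = positive control rescue; higher means more ATP so stronger rescue from cytokine killing; wells of about 40 µL received 100 nL stock; the first replicate is given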
# The depositor's hits bear a star; ? = inconclusive; / = not tested or not shown; & = joins results of further samples.
# Results follow in this order: Calb FLC	LANA-H2A inh	MLL AF4-AF9 inh	Vif TR-FRET	T cruzi inh	A1 inh	RanGTP-Impb inh	Beta cell apopt
- CC(OC(=O)Cc1coc2cc3c(cc12)CCC3)C(=O)NCc1ccc2c(c1)OCO2 (stereo not drawn)
→ -32	/	/	?	-3	0.1	1.6	-5
- CCOC(=O)c1ccc(NC(=O)c2nc[nH]c2C(=O)N[C@H](C)c2ccccc2)cc1
→ -10	0.5	-2.2	4%	15	-0.9	-1.0	8
- CC(C)Cc1ccc(C(C)NC(=O)Cc2ccc(S(=O)(=O)N3CCOCC3)s2)cc1 (stereo not drawn)
→ 12	0.9	-0.5	2%	13	0.5	-1.2	18
- Cc1ccc(NC(=O)COc2cccc(-n3cnnn3)c2)cc1[N+](=O)[O-]
→ -10	2.7	-4.0	/	0	-0.7	-2.6	4
- CC(=O)NC(NC(C)=O)c1ccc(Br)cc1
→ -5	1.8	-3.4	4%	-6	0.3	-1.7	-4
- Cc1ccc(NC(=O)CN(C)C(=O)CCC(=O)c2cccs2)cc1
→ -6	/	/	?	-10	-0.7	4.5	-7
- CCn1c(SCC(=O)Nc2cccc(OC)c2)nnc1-c1ccc(Cl)cc1
→ -5	1.9	/	-2%	-21	-0.8	?	-4
- O=[N+]([O-])c1cc(S(=O)(=O)C(F)(F)F)ccc1Sc1nc2ccccc2[nH]1
→ -2	4.3	/	28%	-9	0.1	1.1	-10
- CC1=CC(C2CC(=O)N(c3ccc(C)cc3)C2=O)CC2C(=O)N(c3ccc(C)cc3)C(=O)C12 (stereo not drawn)
→ 15	0.5	-1.2	-9%	-16	2.8	3.5	-4
- Cc1ccccc1-n1c(SCC(=O)Nc2cccc3ccccc23)nc(O)cc1=O
→ 23	-3.3	1.4	/	-11	-0.6	7.7	-13
- Cc1cc(C(=O)NCc2cccnc2)n(-c2ccccc2)n1
→ 1	-2.4	-1.2	1%	-7	0.5	-1.9	0
- O=C(CCC(=O)N1CCN(S(=O)(=O)c2ccc([N+](=O)[O-])cc2)CC1)N1CCOCC1
→ /	0.3	0.5	4%	/	0.5	/	-5
- COc1ccccc1OC(=O)C1CC(=O)N(c2ccc(Cl)cc2)C1 (stereo not drawn)
→ 37	-1.6	/	1%	3	-0.2	-2.3	-1
- N#Cc1ccc(N2C(=O)[C@@H]3C(C(=O)C(c4ccccc4)c4ccccc4)=NN[C@@H]3C2=O)cc1
→ 8	-3.4	-6.6	/	-8	-0.6	-1.2	-4
- CSc1ccccc1-n1nnnc1SCC(=O)Nc1cc(C)ccc1C
→ 22	2.9	/	-5%	0	1.9	-2.4	-4
- COc1ccc(CN2C(=O)Cc3c2nc(N)c2c(N)nc(N4CCOCC4)c(C#N)c32)cc1
→ -9	3.1	3.5	28%	-12	-0.7	-1.3	9
- Cc1ccccc1N1CC(C(=O)Nc2nnc(SCc3cccnc3)s2)CC1=O (stereo not drawn)
→ -4	-0.2	-2.2	3%	-6	-0.2	1.8	-2
- CNC(=O)COC(=O)c1ccc(NS(=O)(=O)c2ccc3c(c2)OCCO3)cc1
→ 6	-4.5	-0.2	-1%	-2	-0.5	-1.8	-2
- Cc1ccc(C)c(S(=O)(=O)N2CCCCC2CCNC(=O)C(=O)NCc2ccccn2)c1 (stereo not drawn)
→ 0	-2.2	-1.0	-4%	19	-0.7	1.9	2
- COc1ccc(C(=O)Nc2ccc(N3CCN(C(=O)c4cccs4)CC3)cc2)cc1Br
→ 34	1.3	-1.8	/	24	0.0	4.7	25
- Cc1ccccc1C(=O)NCC(=O)Nc1ccccc1C(F)(F)F
→ 7	2.4	2.2	/	-10	1.0	2.6	-3
- CCOC(=O)c1c(NC(=O)Cn2nnc3ccccc32)sc2c1CCC(C)C2 (stereo not drawn)
→ -11	-1.9	/	11%	16	0.1	1.8	7
- Cc1ccc(-n2nnnc2SCC(=O)Nc2ccc3c(c2)COC3=O)cc1C
→ 0	-2.4	/	-5%&-7%	-6	-0.5	-1.0	3
- CC(=O)Nc1ccc(NC(=O)COC(=O)c2ccc(C)s2)cc1
→ -2	11	/	-3%	13	1.0	2.2	5
- Cc1nn(Cc2ccc(Cl)cc2)c(C)c1NC(=O)c1noc2c1CCCCC2
→ 19	1.9	1.1	-1%	25	0.1	-2.1	6
- COc1ccc(S[C@@H](CCN2CC[C@H](O)CCC2=O)c2ccccc2)cc1
→ /	0.3	1.1	/	/	2.9	/	-2
- CCOc1cc(C2C(C#N)=C(N)Oc3cc(N)ccc32)ccc1O (stereo not drawn)
→ 9	-5.0	2.2	/	-4	-0.3	69*	7
- COc1cc2c(cc1NC(=O)c1cc(-c3ccncc3)nc3ccccc13)oc1ccccc12
→ -30	-9.2	12	12%	49	0.6	-0.8	0
- Cc1cccc(C)c1NC(=O)c1ccc(OCc2c(C)noc2C)cc1
→ /	2.3	1.0	/	/	1.7	/	6
- COCCNC(=O)CSc1nc(-c2ccccc2)c(-c2ccccc2)o1
→ 5	-3.8	-8.0	11%	20	0.7	-3.9	2

# Further entries follow:
# Results follow in this order: Calb FLC	LANA-H2A inh	MLL AF4-AF9 inh	Vif TR-FRET	T cruzi inh	A1 inh	RanGTP-Impb inh	Beta cell apopt
- CCCCN(C)CCN1C(=O)C2C(C(=O)Nc3ccc(OC)cc3)C3C=CC2(O3)C1C(=O)NC1CCCCC1 (stereo not drawn)
→ -1	5.3	-4.0	8%	1	-0.7	4.6	2
- O=C(O)C1CSC2c3ccccc3C(=O)N12 (stereo not drawn)
→ -1	2.8	-45	4%	8	0.2	?	-6
- N#CC1=C(N)N2C(=C(C#N)C13CCCCC3)SC1CCCCC12O (stereo not drawn)
→ -2	-1.7	/	-1%	3	0.3	2.7	0
- COc1cccc(C(=O)N/N=C/c2ccc(OC)c(COc3ccccc3C(N)=O)c2)c1
→ -7	0.0	-18	/	-11	-0.6	-2.2	-3
- CC1CC1C(=O)NCCc1ccc(Cl)cc1 (stereo not drawn)
→ -6	-1.3	/	-3%	-9	1.0	?	/
- Cc1ccc(NC(=O)c2ccc(S(=O)(=O)N3CCC(C)CC3)cc2)nc1
→ -1	/	1.5	-6%	4	0.7	2.0	0
- c1ccc(CSc2ccc(-c3ccccn3)nn2)nc1
→ -9	-0.7	0.4	-7%	1	-2.1	5.5	0
- CNC(=O)C(C)c1ncc(C(F)(F)F)cc1Cl (stereo not drawn)
→ 12	2.4	-6.2	2%	-18	0.8	-2.2	0
- COc1ccc(N(C(=O)CNC(=O)c2ccco2)C(C(=O)NC2CCCCC2)c2ccco2)cc1 (stereo not drawn)
→ 0	4.8	/	-5%	-9	1.1	8.2	-14
- O=c1ccc(-c2ccc(S(=O)(=O)NCC3CCN(Cc4cccc(F)c4)CC3)s2)n[nH]1
→ -5	3.7	2.6	6%	19	0.1	8.9	1
- Cn1c(=O)n(C)c2cc(/C=C3/NC(=O)N(Cc4ccccc4)C3=O)ccc21
→ -6	-0.9	/	-2%	17	-0.4	-0.5	-21
- Fc1cccc(NC(=S)NNc2c3ccccc3nc3ccccc23)c1
→ 4	/	7.3	5%	12	/	-0.7	/
- O=C(NCCc1c[nH]c2ccccc12)/C(=C\c1cccnc1)NC(=O)c1ccccc1F
→ 3	-1.4	0.0	/	1	-0.2	3.2	-1
- Cc1cc(=O)[nH]c(SCC(=O)N(CCC#N)c2ccccc2)c1C#N
→ -17	2.3	-1.8	23%	2	-0.2	/	-9
- C=CCN1C(=O)c2ccc(C(=O)N(C)CC(=O)Nc3ccccc3Br)cc2C1=O
→ -5	1.7	-0.8	3%	-16	0.8	-1.2	/
- COc1ccc(S(=O)(=O)NC(CC(=O)NCc2ccco2)C(C)C)cc1 (stereo not drawn)
→ -18	-5.8	/	-1%&-1%	/	0.2	-4.0	-2
- FC(F)(F)c1cccc(N2CCN(C(=S)NCC3CCCO3)CC2)c1 (stereo not drawn)
→ 2	-3.0	2.8	?	10	1.0	0.9	4
- CCN(CC)S(=O)(=O)c1ccc2c3c(cccc13)C(=O)N2
→ 4	-5.7	-14	-2%	-7	0.6	6.4	0
- Cc1ccc(S(=O)(=O)N2CCCC2)cc1[N+](=O)[O-]
→ 6	2.9	/	/	2	0.0	4.1	-5
- O=C(Cc1cccs1)Nc1nc(-c2ccc(F)c(F)c2)cs1
→ 7	-4.2	-1.0	/	23	-0.7	-2.0	1
- Cc1ccc(N(CC(=O)O)S(C)(=O)=O)cc1Cl
→ -5	-3.3	/	-2%	-2	2.1	-5.5	-10
- N#CN(CC(N)=O)c1nc(N2CCCCC2)nc(N2CCCCC2)n1
→ -1	-1.6	/	29%	/	-0.3	-3.0	8
- Cc1ccc(C(CNS(=O)(=O)c2ccc(F)cc2)N2CCN(C)CC2)cc1 (stereo not drawn)
→ -4	3.3	-0.2	1%	-4	0.1	-0.9	-3
- O=C(C1CCC(=O)N1C1CCCCC1)N1CCN(c2ccc(F)cc2)CC1 (stereo not drawn)
→ -1	4.7	3.0	15%	-35	0.8	?	2
- CSc1ccc(CNCCCSc2ncccn2)cc1
→ 2	1.0	5.0	/	43	1.3	?	0
- Cc1ccc(-c2n[nH]c(=O)c3ccccc23)cc1S(=O)(=O)Nc1ccc(F)cc1
→ 3	-2.8	/	2%	19	0.7	-1.0	11
- Cc1ccc(C(=O)Nc2ccccc2N2CCCC2)cc1S(=O)(=O)N1CCOCC1
→ /	0.3	9.9	1%	/	-1.5	/	-5
- CCOC(=O)C1CCCN(C(=O)CC(C)c2ccccc2)C1 (stereo not drawn)
→ 4	-1.9	-11	2%	4	0.4	5.6	-2
- NC(=O)C1CCN(CC(=O)c2c[nH]c3ccc(F)cc23)CC1
→ -9	-3.3	/	-6%	3	0.2	3.8	1
- CCCn1c(N)c(N(CCOC)C(=O)c2ccccc2F)c(=O)[nH]c1=O
→ -1	8.0	-0.3	0%	1	0.7	-4.7	0
- CCn1c(C)nc2cc(C(=O)NNC(=O)CCC3CCCC3)ccc21
→ -2	-5.8	-1.5	/	-35	0.2	1.5	2
- Cc1nc(SCC(=O)Nc2ccc(F)cc2)c(C#N)c(C)c1CC(=O)c1ccc(Br)cc1
→ 3	9.8	/	-78%	4	-0.5	6.6	-7
